Sfp PPTase inh: blocks B. subtilis Sfp PPTase activity; Biochemical Sfp PPTase activity, qHTS; Potency, µM, without a hit: max response, negative = inhibition, most hits filed as inhibitors; actives 3.5% (n = 310,000); AID 1490; active = well fitted inhibition curve with a large enough effect; inconclusive = small, poorly fitted or top-dose-only effect, or another doubt; inactive = no such curve, though single readings can be large or run the other way;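 also: the enzyme is Sfp with the accession as filed and its product quenches rhodamine fluorescence; potency is read from the fitted curve at half-maximal effect; 0% = enzyme reaction without inhibitor and -100% = no enzyme wells; top concentration of the series not given in the record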
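Fluorescence-quenching assay with 15 nM Sfp, 5 uM rhodamine-CoA and 12.5 uM BHQ-2-labelled ybbR peptide in pH 7.6 Hepes/MgCl2 buffer. Enzyme was pre-incubated with compound for 15 min at room temperature. Rate was taken from the 30-min fluorescence change (525/598 nm).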
D2 ag: agonists of human D2 dopamine receptor (beta-arrestin); actives 0.084% (n = 360,000); AID 624465; activation, % (no concentration beside the values); DiscoveRx PathHunter D2 beta-arrestin, luminescence, 90 min; 100% = 57 uM dopamine signal; in the data active = activation above about 40%; inconclusive = about 15% to 40%; inactive = below about 15%; also: compound concentration not given in the record; the text of the record calls up to 30% inactive
Target sequence (P14416 whole entry, looked up): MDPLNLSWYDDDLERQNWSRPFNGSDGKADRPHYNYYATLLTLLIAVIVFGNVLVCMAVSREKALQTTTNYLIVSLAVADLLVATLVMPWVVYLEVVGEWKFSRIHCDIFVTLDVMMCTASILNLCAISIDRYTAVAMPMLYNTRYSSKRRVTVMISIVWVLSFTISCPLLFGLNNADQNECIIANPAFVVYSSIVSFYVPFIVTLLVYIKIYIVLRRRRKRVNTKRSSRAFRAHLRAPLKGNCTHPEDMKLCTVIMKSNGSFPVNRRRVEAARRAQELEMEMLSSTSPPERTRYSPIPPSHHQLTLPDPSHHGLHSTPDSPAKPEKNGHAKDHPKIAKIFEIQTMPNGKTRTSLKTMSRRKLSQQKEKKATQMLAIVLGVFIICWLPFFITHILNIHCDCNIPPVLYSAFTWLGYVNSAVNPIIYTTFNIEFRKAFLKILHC
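DiscoveRx PathHunter D2 beta-arrestin cells (2,100/well) attached overnight, then compound-stimulated 90 min at 37 C in HBSS/10 mM HEPES/0.1% Tween-20 buffer; beta-galactosidase complementation read by luminescence after 1 h at ambient temperature. Dopamine 57 uM final (EC100) as control.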
PINK1 modulator: PINK1 expression modulation | Potency, µM (highest dose often 76.6 µM), without a hit: at the highest dose activation (PINK1 increase), actives largely listed as activators | PINK1 immunofluorescence, high-content cytometry, 24 h | actives 0.2% (n = 410,000); active = well fitted activation curve with a large enough effect; inconclusive = small, poorly fitted or top-dose-only effect; inactive = flat fitted curve, though single readings scatter; cell line not stated here;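 also: potency is read from the fitted curve at half-maximal effect; % of control where 0% means no effect; nearly all actives have a fitted effect of over 65% in size; a mitochondrial uncoupler was the plate control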
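PINK1 protein, normally rapidly degraded, was detected by immunofluorescence after 24 hour compound treatment of a stable cell line. Titration data (5 concentrations) came from laser-scanning cytometry, with CCCP-treated wells as controls.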
ClpP mod: qHTS Assay for Activators of ClpP | ATP-dependent Clp protease proteolytic subunit (Bacillus subtilis (strain 168)), P80244 | purified B. subtilis ClpP, FRET peptide cleavage, 20 min | Potency, µM (doses to about 57.5 µM), inactives show at the highest dose activity change, negative = active | actives 1.9% (n = 340,000); active = well fitted falling curve with a large enough effect; inconclusive = small, poorly fitted or top-dose-only effect; inactive = no such curve, though single readings can be large or run the other way; also: potency is read from the fitted curve at half-maximal effect; the source files actives as falling curves though it sought activators and does not explain the sign; nearly all actives have a fitted effect of over 65% in size; many hits overshoot -100%
Target sequence (P80244 whole entry, looked up): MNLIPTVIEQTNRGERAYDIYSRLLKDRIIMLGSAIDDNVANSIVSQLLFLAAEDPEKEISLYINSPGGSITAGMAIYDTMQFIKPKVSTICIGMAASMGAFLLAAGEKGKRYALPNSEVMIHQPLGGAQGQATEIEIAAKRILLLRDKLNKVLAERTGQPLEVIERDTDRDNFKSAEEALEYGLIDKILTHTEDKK
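Purified B. subtilis ClpP, 10 microg/mL final in Tris/HCl pH8 with KCl, BSA, glycerol and Tween-20, cleaved an Abz/nitrotyrosine-quenched decapeptide. Fluorescence (ex 320, em 430) was read at 0 and 20 min at room temperature. Delta was normalized to 5.8 microM ADEP and DMSO/no-enzyme controls.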
gsp agonist: gsp mutant agonism. gsp mutant cells, cAMP HTRF, 30 min; control for the full effect not named in the record. Potency, µM (doses to about 76.9 µM), inactives show at the top dose activation (cAMP increase), usual class: activators. actives 0.13% (n = 340,000). AID 624287; active = well fitted activation curve with a large enough effect; inconclusive = small, poorly fitted or top-dose-only effect, or another doubt; inactive = no such curve, though single readings can be large or run the other way; cell line not stated here;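 also: phosphodiesterase inhibitor Ro 20-1724 added with compounds to block cAMP breakdown; potency is read from the fitted curve at half-maximal effect; nearly all actives have a fitted effect of over 60% in size; about a fifth of the inactives were tested at one dose only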
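Cells stably selected in G418 were plated at 2000/well, grown 16-24 hr, then given compounds in DMSO with the PDE inhibitor […] (300 uM solution added) for 30 min at 37C; cAMP was read by HTRF.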
Menin MLL FP FL: menin-MLL binding inhibition, fluorescein peptide | AID 1766 | Fluorescence polarization, fluorescein-MLL peptide displacement from menin | FP activity change, % at 61.4 µM | 290,000 tested, under 10 active; inconclusive = falling polarisation curve, or a change in total fluorescence; inactive = total fluorescence flat and polarisation flat or rising; no compound was filed as active; the % refers to the polarisation; negative = inhibition;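 also: % of control where 0% means no effect; inhibitors lower the polarisation; unlabelled MLL peptide was the positive control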
gsp antagonist: antagonists of gsp mutant (McCune-Albright syndrome). actives 0.4% (n = 340,000). AID 624288. Potency, µM (series often up to 76.9 µM), for inactives: at the top dose activity change, negative = inhibition, hits mostly inhibitors. gsp-mutant cells, cAMP HTRF, 30 min; control for the full effect not named in the record; active = falling curve of any shape with a large fitted effect; inconclusive = falling curve, mostly with a smaller effect; inactive = flat or rising curve; cell line not stated here;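 also: intracellular cAMP measured with PDE inhibitor Ro 20-1724 present during compound exposure; potency is read from the fitted curve at half-maximal effect; % is scaled to controls: 0 for no effect and ±100 for the full control effect; nearly all actives have a fitted effect of over 65% in size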
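Measurement of cellular cAMP by homogeneous time-resolved fluorescence following a 30 min compound exposure at 37C. The PDE inhibitor […] was present throughout; the assay buffer was DPBS with 0.05% BSA and 0.005% Tween 20.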
An asterisk follows results filed as active; & = joins results of further samples; [ ] = another dose, or the depositor's remark. Compounds were not picked by outcome; about 5.1% have a hit in one of these screens.

For CC(C(=O)O)N1CCCCC1 (stereo unspecified) the results were Sfp PPTase inh 17.1%, D2 ag -4.7, PINK1 modulator 0.2%, ClpP mod 1.8%, gsp agonist inconclusive, Menin MLL FP FL 0.3 and gsp antagonist 1.1%.
Screening Cc1ccc(OCC(=O)N/N=C/c2cn(C)c3ccccc23)cc1 returned Sfp PPTase inh 0.5%, D2 ag -1.9, PINK1 modulator 4.2%, ClpP mod 0.5%, gsp agonist -50.7%[inhibitor], Menin MLL FP FL 3.9 and gsp antagonist -16.6%.
`C[C@@H](CSc1ccc(Br)cc1)CN1CC[C@H](NC(=O)OCc2ccccc2)CCC1=O` gave D2 ag 1.4, PINK1 modulator -0.1%, ClpP mod -0.7%&0.0% and gsp antagonist -22.2%.
Screening CC(C)Cn1c(SCC(=O)N2CCCc3ccccc32)nc2ccccc2c1=O returned Sfp PPTase inh -4.3%, D2 ag 0.3, PINK1 modulator -0.3%, gsp agonist 4.9%[15.4 µM], Menin MLL FP FL -1.3 and gsp antagonist inconclusive.
`CC1(C)CC(NC(=O)COc2ccc3c4c(c(=O)oc3c2)CCCC4)CC(C)(C)N1` gave Sfp PPTase inh 2.1%, D2 ag -2.5, PINK1 modulator 3.7%, ClpP mod 4.0%, gsp agonist -14.6%, Menin MLL FP FL -2.7 and gsp antagonist 8.0%.
Screening CS(=O)(=O)c1ccc(-c2nnc(NC(=O)C3=COCCO3)o2)cc1 returned D2 ag 1.8, PINK1 modulator 3.0%, gsp agonist 8.5%[15.4 µM] and gsp antagonist 11.3%.
Screening Cc1ccc(NC(=O)COC(=O)c2c(-c3ccccc3)noc2C)cc1 returned D2 ag 7.4, PINK1 modulator 0.1%, ClpP mod 0.8%, gsp agonist inconclusive and gsp antagonist -16.0%.
O=C(Nc1ccccc1)N1CCC2(CC1)CCN(C(=O)c1ccco1)CC2 was read as Sfp PPTase inh 10.3%, PINK1 modulator -0.6% and Menin MLL FP FL -4.2.
`Cc1ccc(OCCC(=O)OCC(=O)c2c(N)n(CC(C)C)c(=O)n(C)c2=O)cc1` gave D2 ag 14.7, PINK1 modulator -1.1%, ClpP mod 1.3%, gsp agonist 25.8% and gsp antagonist -34.4%.
CCCCCC(=O)N1C[C@H](n2cc(COC(=O)c3ccccc3)nn2)[C@@H](O)C[C@@H]1c1ccc(Cl)cc1 was read as D2 ag -8.1, PINK1 modulator 11.2%, ClpP mod 0.8% and gsp agonist -25.4%.
Screening CC1CCCCC1NC(=O)NC(=O)COC(=O)c1ccc(OC(F)F)cc1 (stereo unspecified) returned D2 ag -4.9, PINK1 modulator 8.4%, ClpP mod -1.6%, gsp agonist -3.9%[15.4 µM] and gsp antagonist 8.2%.
OCCCNc1ncnc2scc(-c3ccc(Cl)cc3)c12 was read as Sfp PPTase inh 0.5%, D2 ag 7.2, PINK1 modulator -2.3%, ClpP mod -0.1%, gsp agonist -6.6%[15.4 µM], Menin MLL FP FL 7.7 and gsp antagonist 15.8%.
For NC(=O)c1cc([N+](=O)[O-])ccc1NCc1ccccn1 the results were D2 ag -0.3, PINK1 modulator -0.1%, ClpP mod -3.2% and gsp antagonist -22.0%.
`O=C(COC(=O)CNC(=O)c1ccc(Br)cc1)Nc1nnc(-c2ccccc2)o1` gave D2 ag 12.5, PINK1 modulator -1.2%, ClpP mod 0.2%, gsp agonist -5.2%[15.4 µM] and gsp antagonist 10.2%.
Screening C[C@H](NC(=O)c1nc[nH]c1C(=O)N1CCN(C(=O)OC(C)(C)C)CC1)C(=O)OCc1ccccc1 returned Sfp PPTase inh 5.6%, D2 ag 2.1, PINK1 modulator 0.3%, ClpP mod -0.7%, gsp agonist -5.0%, Menin MLL FP FL -7.0 and gsp antagonist -1.4%.
For O=C(NCCN1CCOCC1)c1ccc2c(c1)N(Cc1cccc(F)c1)C(=O)c1ccccc1S2 the results were Sfp PPTase inh -13.1%, D2 ag -2.7, PINK1 modulator 0.3%, gsp agonist -3.0%[15.4 µM], Menin MLL FP FL 1.6 and gsp antagonist 1.0%.
COc1ccccc1C1CCN(Cc2ccc(Cl)c(Cl)c2)CC1 was read as Sfp PPTase inh 3.9%, D2 ag -3.5, PINK1 modulator inconclusive, ClpP mod -0.8%, gsp agonist 6.2%[15.4 µM], Menin MLL FP FL -2.2 and gsp antagonist 14.4%.
Screening O=C(CSc1ccsc1[N+](=O)[O-])N1CCN(c2ccccn2)CC1 returned Sfp PPTase inh 2.7%, D2 ag -0.8, PINK1 modulator 0.3%, gsp agonist 6.0%[15.4 µM], Menin MLL FP FL 0.1 and gsp antagonist -16.5%.
Screening CC(C)=CCC[C@H](C)C[C@@H]1CC2=C(C(=O)OC(C)(C)O2)[C@H](c2ccc(F)cc2)O1 returned D2 ag -4.6, PINK1 modulator inconclusive and ClpP mod 0.5%.
Screening Cc1nnc(NC(=O)c2c(-c3ccccc3Cl)noc2C)s1 returned Sfp PPTase inh 12.3%, D2 ag -4.2, PINK1 modulator 0.0%, gsp agonist 8.0%[15.4 µM], Menin MLL FP FL 1.0 and gsp antagonist -11.8%.
O=C(O)CCC1OC(=O)C(O)=C1c1ccccc1 (stereo unspecified) was read as Sfp PPTase inh -11.4%, D2 ag -4.0, PINK1 modulator 0.0%, ClpP mod -0.1%, Menin MLL FP FL 7.4 and gsp antagonist 5.1%.
`Nc1c(Cl)cc(C(=O)NC2CC2)cc1Cl` gave D2 ag -1.7, PINK1 modulator 0.7%, gsp agonist 13.6% and gsp antagonist -1.6%.
For O=C(Cc1ccccc1)Nc1cccc(NC(=O)c2cccs2)c1 the results were Sfp PPTase inh 6.6%, D2 ag 0.1, PINK1 modulator 0.2%, ClpP mod -0.6%, gsp agonist inconclusive, Menin MLL FP FL -0.5 and gsp antagonist -4.2%.
`COc1ccc(-c2noc(CN3CCCC(OCc4ccccn4)C3)n2)cc1` (stereo unspecified) gave Sfp PPTase inh 5.2%, D2 ag 0.5, PINK1 modulator -0.9%, ClpP mod 0.4%, gsp agonist 16.5%, Menin MLL FP FL -6.8 and gsp antagonist 3.8%.
For COc1ccc(C(=O)NNC(=O)C2CCCO2)cc1 (stereo unspecified) the results were Sfp PPTase inh 22.7%, D2 ag -5.2, PINK1 modulator -0.2%, ClpP mod 1.8%, gsp agonist inconclusive, Menin MLL FP FL 2.1 and gsp antagonist 22.6%.
Screening O=C1CN(c2nc(-c3cccs3)nc3sc4c(c23)CCCC4)CCN1 returned Sfp PPTase inh inconclusive, D2 ag -0.3, PINK1 modulator -0.3%, gsp agonist -25.4%[15.4 µM], Menin MLL FP FL -2.1 and gsp antagonist inconclusive.
Screening COC(=O)c1c(C)[nH]c(C=O)c1-c1ccccc1 returned Sfp PPTase inh 19.0%, D2 ag -6.0, PINK1 modulator 0.2%, gsp agonist 5.8%[15.4 µM], Menin MLL FP FL -2.1 and gsp antagonist 2.5%.
Screening CCS(=O)(=O)N1CCC(C(=O)NCc2ccc3c(c2)OCO3)CC1 returned Sfp PPTase inh 16.9%, D2 ag 5.6, PINK1 modulator 1.6%, ClpP mod 0.0%, gsp agonist 5.3%, Menin MLL FP FL 1.1 and gsp antagonist 1.9%.
`COc1ccc2[nH]c(C)c(CCN3C(=O)C4CC=CCC4C3=O)c2c1` (stereo unspecified) gave Sfp PPTase inh 0.1%, D2 ag -2.9, PINK1 modulator 1.2%, ClpP mod -3.9%, gsp agonist -95.5%[inhibitor], Menin MLL FP FL 0.1 and gsp antagonist -3.8%.
O=C(CCN1C(=O)c2ccccc2C1=O)N1CCN(Cc2ccccc2)CC1 was read as Sfp PPTase inh -6.1%, D2 ag -1.0, PINK1 modulator 0.5%[38.3 µM], ClpP mod -1.5%, gsp agonist 26.0%, Menin MLL FP FL 0.1 and gsp antagonist -7.6%.
For O=C(CCn1nnnc1CN1CCOCC1)N1CCC(c2ccccc2Cl)C1 (stereo unspecified) the results were Sfp PPTase inh 10.9%, D2 ag -0.6, PINK1 modulator 0.1%, ClpP mod -2.6%, gsp agonist -55.7%[inhibitor] and gsp antagonist 9.3%.
C[C@@H]1CN([C@@H](C)CO)C(=O)CCCn2nncc2CO[C@H]1CN(C)Cc1ccccc1C(F)(F)F was read as D2 ag -4.7, PINK1 modulator 2.6%, ClpP mod 1.2% and gsp agonist -36.4%[inhibitor].
`CNC(=S)N/N=C/c1c(C)nn(-c2cccc(Cl)c2)c1Cl` gave Sfp PPTase inh 6.7%, D2 ag -2.9, PINK1 modulator 0.8%, ClpP mod -2.0%, gsp agonist inconclusive, Menin MLL FP FL 0.3 and gsp antagonist -5.9%.
For COc1ccc(C(c2c(O)nc[nH]c2=O)c2c(O)nc[nH]c2=O)cc1 the results were Sfp PPTase inh 23.6%, D2 ag -3.5, PINK1 modulator 2.5%, gsp agonist 20.0%[15.4 µM], Menin MLL FP FL 2.8 and gsp antagonist 7.0%.
`Cn1c2c(c(=O)n(C)c1=O)C(c1cc3c(cc1Br)OCO3)CC(=O)N2` (stereo unspecified) gave Sfp PPTase inh 0.3%, D2 ag -2.9, PINK1 modulator 1.6%, ClpP mod 0.5%, gsp agonist 11.7%, Menin MLL FP FL -0.7 and gsp antagonist -8.7%.
`CCCC(C(=O)O)N1C(=O)/C(=C2\C(=O)N(C)c3ccccc32)SC1=S` (stereo unspecified) gave Sfp PPTase inh -5.6%, D2 ag 12.7, PINK1 modulator 1.1%, ClpP mod 1.3%, gsp agonist 1.4%[15.4 µM], Menin MLL FP FL 2.6 and gsp antagonist -16.3%.
For O=C(N/N=C\c1cccc(F)c1)c1ccc(-c2ccccc2)cc1 the results were Sfp PPTase inh 3.0%, D2 ag -0.2, PINK1 modulator 2.0%, ClpP mod -0.3%, gsp agonist inconclusive and gsp antagonist 4.5%.
CSc1ncccc1C(=O)OCC(=O)c1cc(C)n(CC2CCCO2)c1C (stereo unspecified) was read as Sfp PPTase inh -1.9%, D2 ag -1.6, PINK1 modulator 1.8%, gsp agonist 9.5%[15.4 µM], Menin MLL FP FL -1.7 and gsp antagonist -10.0%.
Screening CN(CC(=O)NC1(C)CCS(=O)(=O)C1)S(=O)(=O)c1ccc(Cl)cc1 (stereo unspecified) returned D2 ag -2.5, PINK1 modulator 1.0%, ClpP mod 0.6%, gsp agonist -7.5% and gsp antagonist 9.2%.

High-throughput results: PubChem, National Center for Advancing Translational Sciences (NCATS)
